# Screening data from PubChem.
# Beta cell apopt = blocks beta cell apoptosis | INS-1E cytokine-induced death, ATP luminescence, 48 h; percent of positive-control rescue, neutral wells zero | hit rate 0.8% among 300,000 | AID 435005 | protection from apoptosis, % (test concentration not listed);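 active = all replicates at 75% or more, or half of them and the mean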;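 also: 0% = cytokine-treated negative control wells and 100% = positive control rescue; higher means more ATP so stronger rescue from cytokine killing; wells of about 40 µL received 100 nL stock; the first replicate is given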
# A1 inh = inhibitors of the anti-apoptotic protein A1, read as caspase activation; hit rate 0.066% among 330,000; MEF A1-2A-BIM cells, Caspase-Glo 3/7 luminescence, 3 h; percent of clofoctol response, vehicle zero; caspase activation, % (no concentration beside the values);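 active = over half of replicate activation scores above 10%, or exactly half above 10 with the replicate mean above 10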;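 also: wells of about 30 µL received 50 nL stock; many hits fall short of the cut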
# FGF22 binding = FGF22 (human) thermal shift binding; Q9HCT0; recombinant FGF22 thermal shift, SYPRO orange fluorescence; percent of sucrose octasulfate shift, DMSO zero; calls only at 9.99 µM; hit rate 1.5% among 340,000; AID 651658;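 active = melting point raised past a set limit in the mean and every replicate; three in four hits are not shown here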
# Target sequence (Q9HCT0 whole entry, looked up): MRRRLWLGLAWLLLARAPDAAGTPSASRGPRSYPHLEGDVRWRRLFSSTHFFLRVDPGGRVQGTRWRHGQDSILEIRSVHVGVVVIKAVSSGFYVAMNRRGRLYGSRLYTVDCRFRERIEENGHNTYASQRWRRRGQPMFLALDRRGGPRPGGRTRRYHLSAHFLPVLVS
# AF4-AF9 inh = inhibitors of human MLL-AF4/AF9 interaction; AlphaScreen, biotin-AF4 peptide binding to FLAG-AF9; inhibition, % at 10 µM; hit rate 0.47% among 350,000; AID 651704;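 active = every replicate reaching a set inhibition limit, whatever the replicate mean, cut at about 25% in these data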;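 also: 0% = plate neutral control median and 100% = total signal loss; the record names both 10 and 1 µM as test concentration; the first replicate is given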
# Target sequence (P42568 whole entry, looked up): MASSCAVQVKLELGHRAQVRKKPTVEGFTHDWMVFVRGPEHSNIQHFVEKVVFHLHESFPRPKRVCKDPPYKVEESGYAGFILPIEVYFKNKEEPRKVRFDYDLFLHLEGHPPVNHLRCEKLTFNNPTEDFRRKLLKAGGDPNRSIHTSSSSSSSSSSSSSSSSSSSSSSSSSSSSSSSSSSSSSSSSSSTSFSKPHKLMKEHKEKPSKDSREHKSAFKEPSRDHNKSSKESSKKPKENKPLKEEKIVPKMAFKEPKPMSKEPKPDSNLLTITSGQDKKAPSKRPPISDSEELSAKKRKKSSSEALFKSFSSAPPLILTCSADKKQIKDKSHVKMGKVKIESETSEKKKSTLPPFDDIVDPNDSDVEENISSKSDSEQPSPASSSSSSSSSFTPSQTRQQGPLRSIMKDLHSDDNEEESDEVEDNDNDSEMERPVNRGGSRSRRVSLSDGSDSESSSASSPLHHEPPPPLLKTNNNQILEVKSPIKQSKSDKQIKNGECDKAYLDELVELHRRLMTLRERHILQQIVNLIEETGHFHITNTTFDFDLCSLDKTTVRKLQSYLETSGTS
# T cruzi inh = blocks replication of Trypanosoma cruzi | inhibition, % (concentration not given with the values) | AID 1885 | T. cruzi beta-gal in NIH3T3, luminescence, 90 h | hit rate 1.4% among 300,000;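 active = mean inhibition across valid replicates above about 55%, limit read from the data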;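 also: signal also drops with host cell toxicity which is not excluded here; 0% = plate median of DMSO wells and 100% = zero luminescence signal; higher percent means less beta-gal luminescence so fewer parasites; stock transfer was 50 nL into about 50 µL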
# UCH37 DUB inh = inhibitors of human deubiquitinating enzyme UCH37 | Q9Y5K5 | purified proteasome/UCH37, Ub-AMC cleavage fluorescence | AID 588478 | hit rate 0.33% among 330,000 | inhibition, % (test concentration not listed);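 active = mean of two replicates above 20%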;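 also: 0% = compound-free wells with enzyme and 100% = wells lacking proteasome; stock transfer was 100 nL into about 20 µL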
# Target sequence (Q9Y5K5 whole entry, looked up): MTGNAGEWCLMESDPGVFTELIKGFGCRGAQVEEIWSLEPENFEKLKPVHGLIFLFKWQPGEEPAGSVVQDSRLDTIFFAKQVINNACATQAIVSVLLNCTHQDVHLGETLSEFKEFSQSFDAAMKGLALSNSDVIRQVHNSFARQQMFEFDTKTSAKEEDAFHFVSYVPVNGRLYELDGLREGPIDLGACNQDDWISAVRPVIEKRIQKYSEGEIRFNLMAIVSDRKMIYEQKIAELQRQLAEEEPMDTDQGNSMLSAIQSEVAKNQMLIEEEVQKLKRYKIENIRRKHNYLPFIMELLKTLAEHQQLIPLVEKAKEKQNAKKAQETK
#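 Material: human UCH37 enzyme supplied as purified proteasome complex. Measure: % inhibition of Ub-AMC cleavage fluorescence. Medium: pH 7.4 Tris-HCl (50 mM) with ovalbumin, ATP-MgCl2, DTT. Times: 30 min preincubation with enzyme, 25 min cleavage at room temperature. Detection: AMC fluorescence intensity at 355/460 nm.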
# E coli growth = inhibitors of Escherichia coli growth; hit rate 0.21% among 330,000; OD600, 23 h; hits give low values; AID 1053175; OD600 absorbance (concentration not given with the values);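 active = OD600 absorbance below the run mean of sample wells minus 3.6 SD, in any replicate, cut at about 0.56 in these data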;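 also: stock transfer was 300 nL into about 60 µL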
# Ecoli rRNA inh = inhibitors of bacterial rRNA selective over humanized ribosomes; E. coli WT GFP vs humanized-ribosome RFP mutants, fluorescence, 24 h; hits give low values; DMSO median 0, no signal -100; GFP signal change (wild-type ribosome), % (test concentration not listed); hit rate 1.6% among 350,000;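 active = significant combined selectivity score with lowered wild-type GFP, culture density cut under 30%, mutant RFP and density less affected; inactive = any of these conditions unmet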; also: one replicate is shown; some compounds called inactive have numbers as strong as hits
# Ecoli rRNA inh OD600 = second read-out of Ecoli rRNA inh, no call of its own (marks repeat the call); OD600 change, %; measured here: OD600 growth;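 optical density of the mix in the first replicate; 0 = DMSO median and -100 = no signal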
# Ecoli rRNA inh RFP = recorded beside Ecoli rRNA inh, whose call it bears; RFP signal change, %; measured here: RFP humanized mutant strains;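 first replicate; 0 = DMSO median and -100 = no signal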
# Active calls of the source: *; i = inactive; nt = not tested or not shown. A portion of the library, so the mix of outcomes need not match the whole.
# The first three records (preview)
No.	SMILES	UCH37 DUB inh	T cruzi inh	E coli growth	Beta cell apopt	A1 inh
1	Cc1ccc(-c2csc(/C(C#N)=C/Nc3ccc4c(c3)OCCO4)n2)cc1	-2.7	-9.3	0.74	1.7	-0.4
2	CCCCCCn1c(SCCN2CCOCC2)nc2c1c(=O)[nH]c(=O)n2C	5.9	-8.9	0.73	4.7	0.2
3	CCCN(CC1CC1)C(=O)CSc1nnc(-c2ccco2)n1N	3.4	4.3	0.681	-3.2	0.9

No.	AF4-AF9 inh	Ecoli rRNA inh RFP	Ecoli rRNA inh	FGF22 binding	Ecoli rRNA inh OD600
1	-8.2	0.4	13.5	i	10.9
2	nt	nt	nt	nt	nt
3	nt	nt	nt	nt	nt

# This part in full (from the top)
No.	SMILES	UCH37 DUB inh	T cruzi inh	E coli growth	Beta cell apopt	A1 inh
1	Cc1ccc(-c2csc(/C(C#N)=C/Nc3ccc4c(c3)OCCO4)n2)cc1	-2.7	-9.3	0.74	1.7	-0.4
2	CCCCCCn1c(SCCN2CCOCC2)nc2c1c(=O)[nH]c(=O)n2C	5.9	-8.9	0.73	4.7	0.2
3	CCCN(CC1CC1)C(=O)CSc1nnc(-c2ccco2)n1N	3.4	4.3	0.681	-3.2	0.9
4	CCOC(=O)c1c(NC(=S)NC(=O)c2cnn(CC)c2)sc2c1CCC(C)C2 (centres undefined)	2.9	4.7	0.766	-5.5	0.6
5	Cc1cccnc1NC(=S)NCc1ccco1	4.1	-4.1	0.693	-3.5	-1.2
6	Cc1nn(C)c(C)c1S(=O)(=O)NCCc1ccc(Cl)cc1	6.2	7.1	0.657	-4.3	-0.3
7	O=C(Nc1ccc2c(c1)C(=O)OC2)Nc1cccc2ccccc12	0.1	-1.8	0.697	2.4	2.0
8	CC(=O)NNc1[nH]c2c(c(=O)c1[N+](=O)[O-])c(=O)n(C)c(=O)n2C	7.6	-18.8	0.677	0.4	0.5
9	O=C(CNCc1ccccc1)Nc1ccc(Oc2ccccc2)cc1	6.5	0.1	0.616	-0.2	-0.5
10	COCCC(=O)N1CCCC(N2CCN(c3ccc(F)cc3)CC2)C1 (centres undefined)	3.7	-8.4	0.666	-4.1	1.3
11	Cc1nn(-c2ccccc2)nc1C(=O)Nc1ccc2[nH]ncc2c1	-2.3	-12.0	0.692	2.8	-1.2
12	CCCc1cc(C(=O)NCc2ccco2)no1	8.5	-12.8	0.752	6.1	-0.5
13	O=c1[nH]c(N2CCN(Cc3ccccc3)CC2)nc2c1CCC2	3.0	4.0	0.681	3.8	-0.4
14	CC(=O)Nc1ccc(C(=O)OCC(=O)c2ccc(S(=O)(=O)N3CCCCC3)cc2)cc1	0.5	-6.3	0.643	0.3	-0.1
15	O=C(C1CCN(S(=O)(=O)c2ccccc2)CC1)N1CCN(Cc2ccc3c(c2)OCO3)CC1	3.6	-0.6	0.695	-4.9	-0.4

No.	AF4-AF9 inh	Ecoli rRNA inh RFP	Ecoli rRNA inh	FGF22 binding	Ecoli rRNA inh OD600
1	-8.2	0.4	13.5	i	10.9
2	nt	nt	nt	nt	nt
3	nt	nt	nt	nt	nt
4	nt	nt	nt	nt	nt
5	0.7	5.3	0.3	i	-1.9
6	0.1	2.6	3.2	i	4.9
7	-1.4	2.2	8.1	i	4.5
8	-0.9	-1.2	1.3	i	9.8
9	-5.8	-27.8	-55.1	nt	-78.9
10	-0.2	0.6	11.1	i	1.8
11	-1.6	0.5	1.9	i	7.9
12	-4.3	-3.5	5.6	i	8.8
13	0.3	0.1	7.1	i	6.6
14	-5.5	4.7	5.8	i	8.9
15	2.4	1.8	-2.5	i	-4.3

# Remaining list, next part
No.	SMILES	UCH37 DUB inh	T cruzi inh	E coli growth	Beta cell apopt	A1 inh
16	CCS(=O)CCSc1nc2ccccc2s1 (centres undefined)	3.4	-15.6	0.705	nt	-0.5
17	CNC(=O)c1sccc1S(=O)(=O)Cc1c(Cl)cccc1Cl	3.3	-1.9	0.675	-8.5	-0.3
18	FC(F)(F)c1cc(NCc2cccs2)n2ncnc2n1	3.1	-6.8	0.713	-2.6	-0.6
19	O=C(CCn1c(=O)oc2ccccc21)NCc1cccs1	-2.8	-24.5	0.675	-5.6	0.9
20	COC(=O)[C@@H](NC(=O)Nc1ccc2c(c1)OCCO2)C(C)C	4.3	-0.7	0.727	-7.5	-0.3
21	COc1cc(OC)cc(-c2n[nH]c(=S)n2-c2ccc3c(c2)OCO3)c1	2.6	0.0	0.697	3.0	0.2
22	O=C(Nc1cccc(-n2cnnn2)c1)c1ccccc1Br	2.2	-7.4	0.695	6.6	0.8
23	CSc1nn(CCc2ccncc2)c(=S)s1	0.3	-7.8	0.686	1.0	0.2
24	Cc1cc(C(=O)CN2C(=O)NC3(CCCCCC3)C2=O)c(C)n1C	-1.9	nt	0.64	nt	nt
25	Cc1ccccc1CN1C(=O)c2ccccc2Sc2ccc(C(=O)NCCN3CCOCC3)cc21	3.6	23.1	0.64	11.8	-1.5
26	CCCCC/C=C/C1=CC(=O)C[C@H](c2ccc(Cl)cc2)C1	-2.7	nt	nt	0.4	0.8
27	COc1cccc(C(=O)NCc2ccc3c(c2)OCO3)c1	2.4	-3.7	0.616	-19.3	-0.4
28	Cc1csc2nc(CNS(=O)(=O)c3ccc(-c4ccccc4)cc3)cn12	1.4	3.4	0.792	13.8	0.0
29	CCCN(CC(=O)Nc1cc(Cl)ccc1Cl)C(=O)c1ccc(N2CCCC2=O)cc1	1.5	nt	0.677	5.7	0.9
30	O=C(/C=C/Nc1ccccc1)c1ccc(Oc2ncccn2)cc1	-1.3	5.6	0.768	7.3	-6.2

No.	AF4-AF9 inh	Ecoli rRNA inh RFP	Ecoli rRNA inh	FGF22 binding	Ecoli rRNA inh OD600
16	nt	nt	nt	nt	nt
17	nt	nt	nt	nt	nt
18	-25.5	-0.6	14.8	i	6.9
19	nt	nt	nt	nt	nt
20	nt	nt	nt	nt	nt
21	-1.6	1.8	-4.6	i	-14.5
22	-11.6	-6.2	-7.5	i	-3.9
23	nt	nt	nt	nt	nt
24	-15.4	-1.2	5.3	i	4.9
25	7.7	16.5	-1.8	i	-22.1
26	4.9	-2.0	-10.4	i	-19.8
27	-0.5	1.1	7.7	i	6.7
28	-21.2	3.6	-4.9	i	-13.1
29	-0.9	-0.2	-4.8	i	-13.8
30	nt	nt	nt	nt	nt

# Going on with the list.
No.	SMILES	UCH37 DUB inh	T cruzi inh	E coli growth	Beta cell apopt	A1 inh
31	O=C(O)/C=C/c1ccc(-c2cccc(C(F)(F)F)c2)o1	-20.2	-13.8	0.693	-5.2	-1.6
32	O=C(Nc1ccccc1)P(=O)(O)c1ccccc1	0.2	nt	0.685	nt	nt
33	O=C(C1CCN(S(=O)(=O)c2ccc3ccccc3c2)CC1)N1CCN(c2ncccn2)CC1	-0.8	2.0	0.699	-3.9	0.7
34	Cc1c(C)n(Cc2ccccc2)c2ccc(C(=O)O)cc12	-1.2	-9.4	0.66	-0.8	1.2
35	CC1(C)C(=O)C2(CCCCC2)C(=O)OC1c1cccn1-c1ccc([N+](=O)[O-])cc1 (centres undefined)	2.4	-0.6	0.686	1.5	0.5
36	CCn1c(C)c2c([n+]1CC)CC(C)(C)CC2=O	0.9	2.2	0.711	1.3	0.0
37	COc1ccccc1-c1cn[nH]c1-c1ccc(O)cc1O	-2.5	9.8	0.646	-0.7	0.3
38	CCOCCn1ccc2c(OCC(=O)Nc3ccccc3OC)cccc2c1=O	-4.9	9.1	0.653	2.0	1.9
39	CCOC(=O)c1c(NC(=O)CN2CCN(C(=O)c3ccco3)CC2)sc(C(N)=O)c1C	-1.2	6.0	0.643	1.8	0.5
40	c1cnc(Oc2ccc3oc4ccccc4c3c2)nc1	1.1	-5.3	0.662	0.1	1.0
41	c1ccc(CCc2nn3c(Cn4cnc5ccccc54)nnc3s2)cc1	-0.4	14.8	0.718	6.7	-0.2
42	O=C(c1ccc(Cl)c([N+](=O)[O-])c1)N1CCN(Cc2ccc3c(c2)OCO3)CC1	1.0	5.1	0.66	3.3	0.3
43	C=CCC[C@@H](Cc1ccc(F)cc1)C(=O)OC[C@H](C)NC(=O)[C@@H](CC=C)CC(=O)N(CCO)Cc1ccccc1	1.4	nt	0.677	nt	nt
44	O=C(NCc1nnc(SCC(=O)N2CCCC2)o1)c1ccccc1	2.2	-8.1	0.693	-3.5	-1.4
45	CCOC(=O)CN1C(=O)C(Sc2n[nH]c(-c3ccc(C)cc3)n2)CCc2ccccc21 (centres undefined)	2.9	-1.1	0.673	-8.6	1.0

No.	AF4-AF9 inh	Ecoli rRNA inh RFP	Ecoli rRNA inh	FGF22 binding	Ecoli rRNA inh OD600
31	2.5	0.1	-3.6	i	-7.8
32	-4.3	3.4	12.5	i	15.2
33	nt	nt	nt	nt	nt
34	-2.2	2.6	4.9	i	3.0
35	0.4	-1.5	19.1	i	12.6
36	-9.1	0.3	12.8	i	8.2
37	1.2	-11.7	-15.6	i	-8.7
38	-2.3	-1.7	-5.4	i	-0.4
39	-0.6	1.5	9.0	i	7.9
40	nt	nt	nt	nt	nt
41	9.3	-0.4*	-24.1*	i	-12.4*
42	3.5	1.4	2.5	i	-0.8
43	-1.1	8.3	-16.8	i	-39.2
44	-7.3	1.7	7.9	i	10.9
45	-5.5	0.8	-20.0	i	-16.2

# Continuation:
No.	SMILES	UCH37 DUB inh	T cruzi inh	E coli growth	Beta cell apopt	A1 inh
46	Cc1ccc(CNC(=O)C(=O)NCC2OCCN2C(=O)c2cccs2)cc1 (centres undefined)	0.9	1.6	0.662	2.2	-1.2
47	CCOC(=O)CS(=O)(=O)c1ccc2ccccc2c1	1.6	-16.3	0.707	3.8	-1.0
48	O=C(NC(=S)Nc1ccccc1[N+](=O)[O-])c1ccccc1Cl	1.7	0.9	0.612	0.0	0.6
49	COc1ccc(C2C(Oc3ccccc3)C(=O)N2c2ccc(C)c(C)c2)cc1OC (centres undefined)	2.8	29.9	0.739	5.3	2.0
50	COc1ccccc1/C=C/C(=O)N1CCOCC1	-5.9	-13.0	0.716	-1.4	0.2
51	CCN(CC)c1ccc2cc(-c3nc(-c4ccc(OC)cc4)cs3)c(=O)oc2c1	2.4	nt	0.714	9.2	1.8
52	O=C(O)CSc1nnc(-c2ccccc2)o1	1.0	-13.1	0.706	0.8	-1.4
53	CS(=O)(=O)N1CCc2cc(C(=O)N3CCN(c4cccc(Cl)c4)CC3)ccc21	3.6	15.4	0.685	-5.8	0.1
54	COc1ccc(NC(=O)C2CCCNC2)cc1OCC(C)C (centres undefined)	2.6	2.7	0.693	-4.1	-0.4
55	O=C(COC(=O)CC1SC(N2CCCC2)=NC1=O)Nc1c(F)c(F)c(F)c(F)c1F (centres undefined)	-0.5	nt	0.662	-1.2	0.0

No.	AF4-AF9 inh	Ecoli rRNA inh RFP	Ecoli rRNA inh	FGF22 binding	Ecoli rRNA inh OD600
46	0.9	-1.0	7.4	i	10.1
47	nt	nt	nt	nt	nt
48	-1.8	-0.4	-10.5	nt	-1.9
49	nt	nt	nt	nt	nt
50	nt	nt	nt	nt	nt
51	-10.7	12.5	67.3	i	-9.8
52	nt	nt	nt	nt	nt
53	-0.4	-2.7	-14.1	i	-21.4
54	nt	nt	nt	nt	nt
55	0.3	-1.7	10.1	i	8.8
